Screening results as filed in PubChem BioAssay.
nsP2pro inh – Primary qHTS for inhibitors of NSP2Pro chikungunya virus (CHIKV). Polyprotein P1234 (Chikungunya virus (strain S27-African prototype)), Q8JUX6. FRET peptide cleavage, nsP2pro, fluorescence 1 h. AID 1964107, 2024. Potency, µM (series often up to 24.9 µM), for the others: at the highest dose activity change, negative = inhibition, actives largely listed as inhibitors. 31,000 tested, 1.1% active; active means well fitted inhibition curve with a large enough effect; inconclusive means small, poorly fitted or top-dose-only effect; inactive means no such curve, though single readings can be large or run the other way; note: nearly all actives have a fitted effect of over 60% in size; a reference inhibitor and vehicle were the controls
Target sequence (Q8JUX6 whole entry, looked up): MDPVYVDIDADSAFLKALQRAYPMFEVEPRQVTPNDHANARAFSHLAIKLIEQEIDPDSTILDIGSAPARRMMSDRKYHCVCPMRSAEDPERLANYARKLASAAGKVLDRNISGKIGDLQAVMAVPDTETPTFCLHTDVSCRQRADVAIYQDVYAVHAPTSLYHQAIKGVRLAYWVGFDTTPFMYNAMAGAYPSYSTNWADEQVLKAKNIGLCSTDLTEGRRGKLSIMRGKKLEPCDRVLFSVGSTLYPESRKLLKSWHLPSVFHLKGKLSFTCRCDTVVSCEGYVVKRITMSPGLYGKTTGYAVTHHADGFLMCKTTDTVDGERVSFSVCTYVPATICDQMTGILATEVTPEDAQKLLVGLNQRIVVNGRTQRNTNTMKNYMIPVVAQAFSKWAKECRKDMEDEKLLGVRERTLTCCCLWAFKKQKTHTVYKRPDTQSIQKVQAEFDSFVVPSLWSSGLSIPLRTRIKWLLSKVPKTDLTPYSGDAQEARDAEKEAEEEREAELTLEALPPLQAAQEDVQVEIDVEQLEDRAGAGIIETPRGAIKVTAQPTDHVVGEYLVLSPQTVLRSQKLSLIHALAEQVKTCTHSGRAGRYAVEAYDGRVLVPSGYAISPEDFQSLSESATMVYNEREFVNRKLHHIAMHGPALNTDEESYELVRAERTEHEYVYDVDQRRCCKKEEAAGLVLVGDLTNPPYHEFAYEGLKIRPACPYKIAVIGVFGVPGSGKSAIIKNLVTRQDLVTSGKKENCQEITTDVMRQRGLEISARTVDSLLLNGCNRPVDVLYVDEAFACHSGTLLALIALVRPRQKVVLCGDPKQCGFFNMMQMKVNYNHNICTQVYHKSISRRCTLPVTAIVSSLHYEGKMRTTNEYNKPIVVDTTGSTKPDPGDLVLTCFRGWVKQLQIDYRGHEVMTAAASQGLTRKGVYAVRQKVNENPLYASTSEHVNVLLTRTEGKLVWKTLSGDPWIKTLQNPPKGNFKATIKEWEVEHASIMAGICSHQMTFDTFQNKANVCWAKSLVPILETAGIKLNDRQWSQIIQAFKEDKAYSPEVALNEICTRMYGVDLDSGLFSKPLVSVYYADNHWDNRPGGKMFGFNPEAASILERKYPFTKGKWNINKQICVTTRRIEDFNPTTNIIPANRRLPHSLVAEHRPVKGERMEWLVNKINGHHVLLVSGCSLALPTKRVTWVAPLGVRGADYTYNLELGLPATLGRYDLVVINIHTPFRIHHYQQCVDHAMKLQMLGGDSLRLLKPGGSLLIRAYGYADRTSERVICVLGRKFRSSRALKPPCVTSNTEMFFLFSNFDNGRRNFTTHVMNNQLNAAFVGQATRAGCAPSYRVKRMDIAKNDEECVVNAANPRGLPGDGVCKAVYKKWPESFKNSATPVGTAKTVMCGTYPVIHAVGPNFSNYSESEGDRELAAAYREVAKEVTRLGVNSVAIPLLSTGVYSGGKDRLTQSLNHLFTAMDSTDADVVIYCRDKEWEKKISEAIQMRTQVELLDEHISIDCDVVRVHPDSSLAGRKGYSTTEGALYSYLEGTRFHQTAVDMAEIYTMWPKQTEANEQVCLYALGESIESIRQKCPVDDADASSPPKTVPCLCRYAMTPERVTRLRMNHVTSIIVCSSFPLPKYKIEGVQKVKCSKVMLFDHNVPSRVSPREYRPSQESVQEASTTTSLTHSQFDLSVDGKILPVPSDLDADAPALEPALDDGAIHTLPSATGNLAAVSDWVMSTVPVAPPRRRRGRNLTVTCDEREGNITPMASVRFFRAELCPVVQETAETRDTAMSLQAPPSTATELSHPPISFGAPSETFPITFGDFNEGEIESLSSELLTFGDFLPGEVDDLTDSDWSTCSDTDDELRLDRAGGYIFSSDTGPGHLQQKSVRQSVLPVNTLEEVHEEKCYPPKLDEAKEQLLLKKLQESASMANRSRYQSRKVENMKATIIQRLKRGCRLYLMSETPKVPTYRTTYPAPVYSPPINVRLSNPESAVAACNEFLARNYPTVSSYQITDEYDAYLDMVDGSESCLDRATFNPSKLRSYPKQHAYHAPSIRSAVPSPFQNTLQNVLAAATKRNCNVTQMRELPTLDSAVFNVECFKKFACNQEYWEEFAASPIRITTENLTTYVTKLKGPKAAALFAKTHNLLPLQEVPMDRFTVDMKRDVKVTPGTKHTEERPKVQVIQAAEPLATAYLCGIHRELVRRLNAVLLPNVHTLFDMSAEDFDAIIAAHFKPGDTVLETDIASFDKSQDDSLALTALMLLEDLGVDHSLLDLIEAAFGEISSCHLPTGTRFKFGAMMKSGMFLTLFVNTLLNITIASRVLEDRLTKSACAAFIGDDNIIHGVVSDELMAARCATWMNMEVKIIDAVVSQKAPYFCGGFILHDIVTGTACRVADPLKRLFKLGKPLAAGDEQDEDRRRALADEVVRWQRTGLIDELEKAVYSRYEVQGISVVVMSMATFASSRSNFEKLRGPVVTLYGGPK
Starred values were filed as active, the others as inactive; & = joins results of further samples; [ ] = another dose, or the depositor's remark. % is set by controls: 0 for no effect and ±100 for the full control effect; potency is the fitted concentration of half-maximal effect.

The opening four entries, ahead of the listing:
Results for C#CCCC(=O)Nc1sc2c(c1-c1nc3ccccc3s1)CCNC2 ?
nsP2pro inh: 1%

What do the screens show for `CCC(C(=O)NCCc1cc(OC)ccc1OC)n1nc(C)c2sc3ccccc3c2c1=O` (configuration not stated)?
nsP2pro inh: -9%

Results for COc1ccc2nc(-c3ccc(F)cc3Cl)sc2c1 ?
nsP2pro inh: -13%

How did CC(=O)Nc1ccc(S(=O)(=O)N2CCN(c3ccccc3)CC2)cc1 do in these assays?
nsP2pro inh: -12%

The list itself, from the first entry:
Results for C#CCCC(=O)Nc1sc2c(c1-c1nc3ccccc3s1)CCNC2 ?
nsP2pro inh: 1%

What do the screens show for `CCC(C(=O)NCCc1cc(OC)ccc1OC)n1nc(C)c2sc3ccccc3c2c1=O` (configuration not stated)?
nsP2pro inh: -9%

Results for COc1ccc2nc(-c3ccc(F)cc3Cl)sc2c1 ?
nsP2pro inh: -13%

How did CC(=O)Nc1ccc(S(=O)(=O)N2CCN(c3ccccc3)CC2)cc1 do in these assays?
nsP2pro inh: -12%

How did Cc1cc(C)cc(NC(=O)CSc2oc(-c3cccs3)nc2S(=O)(=O)c2ccc(Br)cc2)c1 do in these assays?
nsP2pro inh: inconclusive

What do the screens show for `CCCNC(=O)CCc1c(C)nc2nc(CNC(=O)c3ccccc3)nn2c1C`?
nsP2pro inh: -10%

Results for COC[C@H]1NC(=O)CC[C@H]1C(=O)N1CCN(c2cccc(C)c2)CC1 ?
nsP2pro inh: 0%

What do the screens show for `FC(F)(F)c1cccc(N2CCN(C(=S)Nc3nccc4cccnc34)CC2)c1`?
nsP2pro inh: inactive

Results for COc1cccc(Cn2ncc3c4sc(B(O)O)cc4n(C)c3c2=O)c1 ?
nsP2pro inh: inactive

What do the screens show for `O=C(O)C[C@@H]1CCN(C(=O)c2ccc(C(F)(F)F)cc2)C[C@@H]1CCN1CCN(c2ccccn2)CC1`?
nsP2pro inh: -4%

How did CCN(Cc1ccccc1)Cc1c(O)ccc2c(=O)c(-c3ccccc3Cl)coc12 do in these assays?
nsP2pro inh: -19%

How did COc1ccccc1CNC(=O)Cn1cc2c(n1)-c1c(oc(C(=O)N3CCOCC3)c1C)CC2 do in these assays?
nsP2pro inh: -29%

Results for COC(=O)c1cc2sccc2n1Cc1c(C)cc(C)cc1C ?
nsP2pro inh: -21%

Results for COc1ccccc1NC(=O)c1sc2ncn(Cc3ccccc3Cl)c(=O)c2c1C ?
nsP2pro inh: -13%

How did O=C(NCc1ccccc1)c1cn(C2CNC2)nn1 do in these assays?
nsP2pro inh: -30%

What do the screens show for `Cc1ccc2c(c1)c1c(c(=O)n(Cc3ccccc3)c(=O)n1Cc1cccc(C(F)(F)F)c1)n2C`?
nsP2pro inh: -12%

Results for CCc1ccc(NC(=O)CSc2ncc(S(=O)(=O)c3cc(C)ccc3C)c(=O)[nH]2)cc1 ?
nsP2pro inh: 12%

How did Cc1ccc(NC(=O)CSc2nnc(-c3cccc([S+](=O)([O-])N4CCCC4)c3)n2-c2ccccc2)cc1 do in these assays?
nsP2pro inh: 2%

What do the screens show for `Cc1cnc(-c2cnc(NCCNc3ccc(C#N)cn3)nc2-c2ccc(Cl)cc2Cl)[nH]1`?
nsP2pro inh: 18%

How did CCOC(=O)c1ccoc1-c1ccc2ncnc(NCc3csc(C)n3)c2c1 do in these assays?
nsP2pro inh: -1%

In the list so far, 2 have a furan ring, fused or not.
How did COc1ccccc1CNC(=O)Cn1cc2c(n1)-c1c(oc(C(=O)N3CCOCC3)c1C)CC2 do in these assays?
nsP2pro inh: -29%

How did CCOC(=O)c1ccoc1-c1ccc2ncnc(NCc3csc(C)n3)c2c1 do in these assays?
nsP2pro inh: -1%

The list continues.
What do the screens show for `Cc1noc(C)c1C(=O)N(C)C1CCc2nnc(C)n2CC1` (configuration not stated)?
nsP2pro inh: -1%

How did COc1ccc(-c2nc(N3CCOCC3)c3sc(CN(C)c4ncc(C(=O)NO)cn4)cc3n2)cn1 do in these assays?
nsP2pro inh: 50%&70%[activator]

What do the screens show for `Cn1c(=O)oc2cc(S(=O)(=O)N3CCC(C(=O)NCc4ccccc4Cl)CC3)ccc21`?
nsP2pro inh: -17%

Results for CC(C)OC(=O)c1ccc(NC(=O)CSc2nc(-c3cccs3)cc(C(F)(F)F)n2)cc1 ?
nsP2pro inh: -7%

How did COc1ccc(Oc2c(Cl)cnn(-c3cc(C)cc(C)c3)c2=O)cc1 do in these assays?
nsP2pro inh: 0%

What do the screens show for `CCCc1nc(SC)ncc1C(=O)Nc1ccc(Cl)cc1C(=O)c1ccccc1`?
nsP2pro inh: -25%

How did O=C(O)c1ccc(-c2noc(-c3ccc(C(F)(F)F)cc3)n2)cc1 do in these assays?
nsP2pro inh: 3%

What do the screens show for `O=C(NCCc1ccc2c(c1)OCO2)c1cc2sccc2n1Cc1ccccc1`?
nsP2pro inh: 1%

How did COC(=O)c1ccc(C(=O)OC)c(NC(=O)c2c(-c3ccccc3)c(-c3ccccc3)nn(C)c2=O)c1 do in these assays?
nsP2pro inh: -12%

Results for CC(C)N1CCc2c(sc(NC(=O)C(F)(F)F)c2-c2nc3ccccc3s2)C1 ?
nsP2pro inh: inconclusive

Results for COC(=O)CCSC/C=C(\C)CCn1cc(CCc2ccc(-c3ccccc3)cc2)nn1 ?
nsP2pro inh: -10%

Results for CCN(CC)S(=O)(=O)c1ccc2c(c1)c(=O)c(C(=O)N1CCN(c3cccc(C)c3)C(C)C1)cn2C (configuration not stated) ?
nsP2pro inh: -12%

How did CCCn1c(C)nc2c(N3CCC(N(C)C)C3)nc(C)nc21 (configuration not stated) do in these assays?
nsP2pro inh: inactive

How did O=S(=O)(N[C@H]1CO[C@H]2[C@@H]1OC[C@H]2O)c1ccc(Cl)cc1 do in these assays?
nsP2pro inh: -4%[39.2 µM]

How did CN(CC(F)(F)F)c1nc(NCc2ccc(-c3cccnc3)cc2)c2ccccc2n1 do in these assays?
nsP2pro inh: -8%

How did CC[N+]1(CC)CCC(=C(c2ccccc2)c2ccccc2)C1C (configuration not stated) do in these assays?
nsP2pro inh: inconclusive

Results for CCOc1ccc(-n2ccnc2SCC(=O)Nc2cccc3ccccc23)cc1 ?
nsP2pro inh: -25%

How did O=C(Nc1ccc(Cl)c(Cl)c1)N1CCN(c2ccncc2)CC1 do in these assays?
nsP2pro inh: inactive

What do the screens show for `CCc1cnc(N2CCC(c3nc(COc4ccc(-n5cnnn5)cc4)cs3)CC2)nc1`?
nsP2pro inh: -8%

Results for Cc1ccc(CN2CC[C@H](c3nc4ccc(C)cc4[nH]3)C2)cc1 ?
nsP2pro inh: 2%[39.2 µM]

What do the screens show for `COc1ccc([S+](=O)([O-])N2CCCN([S+](=O)([O-])c3ccc(OC)c(NC(C)=O)c3)CC2)cc1NC(C)=O`?
nsP2pro inh: -3%

What do the screens show for `N=c1c2c(ncn1-c1ccccc1)Oc1ccc3ccccc3c1C2c1ccc2c(c1)OCO2` (configuration not stated)?
nsP2pro inh: -14%

Results for CC(=O)N1CCn2c(nnc2-c2ccccc2)C1 ?
nsP2pro inh: -7%[39.2 µM]

Results for Cn1c(=O)c2nc(SCC(=O)Nc3ccc(OC(F)(F)F)cc3)n(C)c2n(C)c1=O ?
nsP2pro inh: -13%

What do the screens show for `O=C(Nc1cccc(C2=NCCN2)c1)Nc1cccc(C2=NCCN2)c1`?
nsP2pro inh: 34%[activator][10 µM]

Results for COc1ccc(C)cc1NC(=O)CN1CCCN(S(=O)(=O)c2ccc(Br)cc2)CC1 ?
nsP2pro inh: -17%

How did C[C@]12CCC(=O)C=C1CC[C@H]1[C@@H]3CC[C@](O)(C(=O)CO)[C@@]3(C)C[C@H](O)[C@@]12F do in these assays?
nsP2pro inh: -6%

How did Cc1cccc(Nc2nc(-c3ccccc3)c3cc(C)ccc3n2)c1 do in these assays?
nsP2pro inh: -10%

What do the screens show for `COc1cc(C)ccc1OCCn1c(-c2ccc(Cl)cc2)nc2ccccc2c1=O`?
nsP2pro inh: -15%

How did CCCN1CCCc2cc(CN(CCCN3CCOCC3)C(=O)Nc3ccc(Cl)c(Cl)c3)ccc21 do in these assays?
nsP2pro inh: -6%

What do the screens show for `CC(=O)Nc1sc2c(c1-c1cccc3ccccc13)CCNC2`?
nsP2pro inh: -7%

What do the screens show for `CC(=O)Nc1cccc([S+](=O)([O-])N2CCCN([S+](=O)([O-])c3cccc(NC(C)=O)c3)CC2)c1`?
nsP2pro inh: inactive

How did Cc1cnc(C(=O)N2CCC3(CC2)C(=O)N(c2cccc(F)c2)C3c2ccccc2)cn1 (configuration not stated) do in these assays?
nsP2pro inh: 0%

What do the screens show for `CNC(=O)[C@@H]1CN(C(=O)c2cc(C)n(CCOC)c2C)C[C@H]1COC`?
nsP2pro inh: -8%

What do the screens show for `Cc1c(C(=O)OCC2CCCCC2)[nH]c2c1C(=O)CC(c1ccc(F)cc1)C2` (configuration not stated)?
nsP2pro inh: -24%

Results for C=C1C[C@@H]2[C@H](CC[C@]3(C)C(=O)CC[C@@H]23)[C@@]2(C)C=CC(=O)C=C12 ?
nsP2pro inh: -6%

How did O=C(N1CCCCCC1)C1(CCO)CCN(c2ncccn2)C1 (configuration not stated) do in these assays?
nsP2pro inh: inactive

Results for CCOC(=O)c1ccccc1NC(=O)Cn1c(=O)n(Cc2ccccc2)c(=O)c2c(C)c(C)sc21 ?
nsP2pro inh: -24%

What do the screens show for `Cc1ccc2c(C(=O)NCc3ccc(C(F)(F)F)cc3)cc(NC(=O)C(C)C)cc2n1`?
nsP2pro inh: inactive

What do the screens show for `N#Cc1nc(Nc2ccccc2)nc(NC2CCCC2)n1`?
nsP2pro inh: 1%

Results for NC(=O)C1(N2CCCCC2)CCN(C(=O)Nc2ccc(F)cc2F)CC1 ?
nsP2pro inh: -20%

Results for O=S(=O)(c1ccc2c(c1)OCCO2)N1CCN(S(=O)(=O)c2cccs2)CC1 ?
nsP2pro inh: -7%

How did Cc1ccc(OCC(=O)Nc2ccc(Cl)cc2C(=O)c2ccccc2)cc1 do in these assays?
nsP2pro inh: -24%

Results for N#Cc1ccc(C(=O)Nc2ccc3n(c2=O)C[C@H]2C[C@@H]3CN(C(=O)NC3CCCCC3)C2)cc1 ?
nsP2pro inh: -17%

Results for N#CN1CCC(NS(=O)(=O)c2cccc(C(F)(F)F)c2)CC1 ?
nsP2pro inh: 3%

Results for CC(=O)OC1C(OC(=O)c2ccccc2)C2C(C)(C)CCC(OC(C)=O)C2(C)C23CCC(C)(C2)C(=O)CC13 (configuration not stated) ?
nsP2pro inh: -14%[10 µM]

What do the screens show for `O=S(=O)(Nc1ccc2ccccc2c1)c1ccc(NCc2ccc(Br)cc2O)cc1`?
nsP2pro inh: 4%

Results for CCN(Cc1ccccc1)C(=O)Cn1c(=O)n(-c2cccc(C)c2)c(=O)c2c1c1cc(OC)ccc1n2C ?
nsP2pro inh: -19%

Results for Cc1ccccc1C(=O)c1cccn1CC(=O)NCc1cccc(Cl)c1 ?
nsP2pro inh: -10%

Results for CC(C)CC(=O)OC[C@H]1O[C@@](COC(=O)CC(C)C)(O[C@H]2O[C@H](CO)[C@@H](O)[C@H](O)[C@H]2OC(=O)CC(C)C)[C@@H](OC(=O)CC(C)C)[C@@H]1O ?
nsP2pro inh: 8%[10 µM]

Results for COc1ccc(NC(=O)c2ccc(-c3nc(COc4ccccc4)c(C)o3)cc2)cc1 ?
nsP2pro inh: -26%

What do the screens show for `CC(=O)OC[C@]12C[C@H](OC(=O)CC(C)C)C(C)=C[C@H]1O[C@@H]1[C@H](O)[C@@H](O)[C@@]2(C)[C@]12CO2`?
nsP2pro inh: -7%[10 µM]

How did COc1ccc(C(=O)N[C@@H]2CCC[C@@H]2C(=O)NCc2ccc(C)o2)cn1 do in these assays?
nsP2pro inh: inconclusive

Results for CCc1nc(SC)ncc1C(=O)N1CCN(c2cc(Cl)ccc2C)CC1 ?
nsP2pro inh: -20%

What do the screens show for `C[C@@H](N)C(=O)O`?
nsP2pro inh: -21%

What do the screens show for `O=C(NCc1ccc(F)cc1Cl)c1ccc(CSCc2ccccc2Cl)o1`?
nsP2pro inh: -7%

Results for CCOC(=O)CCNc1cc(N2CCc3ccccc3CC2)nc(-c2cccnc2)n1 ?
nsP2pro inh: 39%[activator]

What do the screens show for `Cc1ccc2c(c1)-c1c(c(C(=O)N3CCN(c4cc(Cl)ccc4C)CC3)nn1C)CS2`?
nsP2pro inh: inconclusive

What do the screens show for `COC(=O)[C@H](NC(=O)[C@@H]1C[C@H](NC(=O)Nc2ccc(OC)cc2)CN1C(=O)C=C(C)C)C(C)C`?
nsP2pro inh: -11%

What do the screens show for `CSc1nc(N)cc(Oc2ccc(-c3nc(Nc4cccc(C(F)(F)F)c4)n[nH]3)cc2)n1`?
nsP2pro inh: 64%[activator]

What do the screens show for `Cn1cc(CCCC(=O)NCc2ccccc2Cl)c2ccccc21`?
nsP2pro inh: -13%

Results for CN(Cc1nccs1)S(=O)(=O)c1ccc(Nc2nc(-c3ccccc3)cs2)cc1 ?
nsP2pro inh: inactive

What do the screens show for `CC/C=C/C=C/C1(C)OC(OC)=C(C(=O)C2C(C)C(=O)c3cc(OC)c(O)c(O)c3C2(C)O)C1=O` (configuration not stated)?
nsP2pro inh: -23%[10 µM]

How did COCCCNC(=O)c1ccc(-n2c(-c3ccccc3)cc3c2CCCC3)cc1 do in these assays?
nsP2pro inh: -16%

What do the screens show for `CC(=O)OC1C(O)C2C(C)C3=CC(=O)OC3(O)CC2C2(C)CCCC(C)(CO)C12` (configuration not stated)?
nsP2pro inh: -3%[10 µM]

Results for O=Cc1ccccc1C=O ?
nsP2pro inh: -14%

Results for CC(C)C(Oc1ccccc1)C(=O)N1CCc2c(ncnc2N(C)C)C1 (configuration not stated) ?
nsP2pro inh: 1%

What do the screens show for `CCN1c2cc(C(=O)Nc3cccc(C(F)(F)F)c3)ccc2C(=O)N2CCCCC21` (configuration not stated)?
nsP2pro inh: inactive

The list is partial. The share of hits here may be higher or lower than overall.
